NS1 function inh: qHTS Assay for Inhibitors of Influenza NS1 Protein Function; S. cerevisiae slowed by influenza A NS1, growth recovery by OD600; Potency, µM (titrated, usually from 46.1 µM), for the others: at the top dose activity, positive = more growth; 270,000 compounds, 0.4% hits; further: actives are rising curves; nearly all actives have a fitted effect of over 50% in size
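Growth recovery, yeast-based: influenza A NS1 expressed in S. cerevisiae causes slow growth, and suppressors are detected by OD600. The parent strain without NS1 is used as positive control.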
SARS PLpro yeast: qHTS of Yeast-based Assay for SARS-CoV PLP; Potency, µM (doses to about 32.9 µM), inactives show at the top dose activity, positive = growth rescue; S. cerevisiae expressing SARS-CoV PLpro, growth rescue; control for the full effect not named in the record; 330,000 compounds, 0.19% hits; further: 0% is about no effect; nearly all actives have a fitted effect of over 55% in size; growth read by luminescence after 48 h
LASV entry inh: qHTS for Inhibitors of binding or entry into cells for Lassa Virus | 300,000 compounds, 1.2% hits | Lassa virus pseudotype entry inhibition, cell reporter; control for the full effect not named in the record | AID 540256, 2011 | Potency, µM (highest dose often 37.9 µM), for inactives: at the highest dose activity change, negative = inhibition, actives largely listed as inhibitors; active means well fitted inhibition curve with a large enough effect; inconclusive means small, poorly fitted or top-dose-only effect, or effect the other way; inactive means flat fitted curve, though single readings scatter; tested in HEK293 cells; further: on the % scale 0 is the no-effect control and ±100 the full control effect; nearly all actives have a fitted effect of over 50% in size; luciferase read-out
An asterisk follows results filed as active; ? = inconclusive; . = not tested or not shown; [ ] = dose if it differs, or a comment. Unless noted, the call rests on the fitted dose curve; in most records, active means well fitted rising curve with a large enough effect; inconclusive means small, poorly fitted or top-dose-only effect; inactive means no such curve, though single readings can be large or run the other way. Potency means the concentration at half of the fitted maximal effect. Some of the compounds tested; the hit share may differ from the screen's.

Screens in order: NS1 function inh, SARS PLpro yeast, LASV entry inh
- CC1CCCN(c2nc3c(c(=O)[nH]c(=O)n3C)n2CCSc2ncccn2)C1 (configuration not stated)
 : -4.1%, 0.3%, .
- O=C1Nc2ccc(Br)cc2/C1=C/c1ccc(C(=O)O)cc1
 : 12.2%, 2.0%, .
- CNC(C)C#Cc1ccc2c(=O)c3c(OC)cccc3oc2c1 (configuration not stated)
 : 19.2%, -0.5%, .
- Cc1ccc2c(c1)c1nnc(SCC(=O)NC3CC3)nc1n2C
 : 1.2%, 1.7%, .
- Cc1ccc(C(=O)Nc2ccc3c(c2)OCO3)cc1Cl
 : -18.6%, -9.1%, .
- O=C(CNc1cc(S(=O)(=O)N2CCCC2)ccc1OCC(F)(F)F)Nc1cc(Cl)cc(Cl)c1
 : -3.7%, 0.2%, .
- O=C(O)c1cc(-c2ccc(/C=c3\sc4nc5ccc(Br)cc5n4c3=O)o2)ccc1Cl
 : -2.9%, 0.5%, .
- C#CCOCCOCCOCCNc1nc(N2CCN(C(=O)[C@H](CCCCN)n3cc(C(N)CO)nn3)CC2)nc(N2CCN(C(=O)[C@H](CCC(=O)O)n3cc(C(N)CC(C)C)nn3)CC2)n1 (some centres not stated)
 : 0.0%, 2.0%, .
- CC(=O)Nc1ccc(S(=O)(=O)N2C(=O)c3cccc4cccc2c34)cc1
 : 5.1%, 1.3%, .
- CC(C)/C=C/CN1CCC(Oc2ccc(C(=O)N3CCCC3)cc2)CC1
 : 5.4%, -5.0%, .
- O=C(NC1CCCCC1)C(=S)NC1CCCCC1
 : 2.2%, 0.7%, .
- O=C(Nc1nc2ccccc2s1)c1ccc2c(c1)S(=O)(=O)c1ccccc1C2=O
 : -5.0%, 2.3%, .
- COc1ccc(C(OCC2CO2)c2ccc(OC)cc2)cc1 (configuration not stated)
 : -6.1%, 0.2%, .
- C=CCNc1cccc2c1S(=O)(=O)N[C@H](CC(C)C)CO2
 : ., ., ?
- CC1C(=O)N(Cc2cn(CC3CCCCC3)nn2)CCS(=O)(=O)N1Cc1ccc(-c2ccc(F)cc2)cc1 (configuration not stated)
 : ., ., ?
- O=C1[C@@H]2CSCCS(=O)(=O)N2C(=O)N1c1cccc2ccccc12
 : ., ., ?
- C=CCCC1CN(Cc2ccc(OC)cc2)S(=O)(=O)c2c(Oc3ccc(C)cc3)cccc2O1 (configuration not stated)
 : ., ., ?
- COc1ccc(-c2cc(-c3cn[nH]c3-c3ccccn3)ccn2)cc1
 : ., ., ?
- C#CCN(Cc1ccc(OCCC)cc1)S(=O)(=O)c1ccc(Br)cc1F
 : ., ., -25.2%[46.1 µM]
- C=C(Br)S(=O)(=O)NCc1ccccc1
 : ., ., ?
- CN(c1cc2c(c3c1ccn3C)C1CCC2O1)C(C)(C)C (configuration not stated)
 : ., ., 3.53µM*
- O=C(c1cccs1)N1C[C@H](O)[C@H](n2cc(C3CC3)nn2)C[C@@H]1c1ccccc1
 : ., ., 8.1%[46.1 µM]
- COc1ccc(-c2nn3ncccc3c2-c2ccnc(Nc3cccc(C(F)(F)F)c3)n2)cc1
 : ., ., 25µM*
- C[C@@H]1COc2cccc(NCCO)c2S(=O)(=O)N1
 : ., ., 4.7%[46.1 µM]
- CCN(CC)Cc1ccc(Nc2nccc(-c3cnn4ncccc34)n2)cc1
 : ., ., 0.0397µM*
- CC(C)[C@@H](CO[Si](C)(C)C(C)(C)C)N1CC=CS1(=O)=O
 : ., ., 7.6%[46.1 µM]
- NCc1ccc(-c2nc(-c3ccc(Cl)c(O)c3)c(-c3ccncc3)[nH]2)cc1
 : ., ., -18.9%
- C[C@H]1COc2cccc(NCCO)c2S(=O)(=O)N1
 : ., ., 6.4%[46.1 µM]
- CCOC(=O)[C@@H]1CSCCS(=O)(=O)N1C(=O)[C@@H](NC(=O)OC(C)(C)C)[C@@H](C)CC
 : ., ., ?
- CC[C@H](C)[C@@H]1NC(=O)[C@@H]2CSCCS(=O)(=O)N2C1=O
 : ., ., ?
- COc1ccc(-c2ccc3c(NC(=O)C4CC4)n[nH]c3n2)cc1
 : ., ., ?
- Oc1[nH]c2ccccc2c1C=Nc1ccc(-n2cncn2)cc1
 : ., ., ?
- COC(=O)[C@H](C)N1CC=CCOc2c(Cl)cc(Cl)cc2[S+]1(=O)[O-]
 : ., ., -4.2%[46.1 µM]
- NS(=O)(=O)c1cccc(-c2ccc3c(NC(=O)C4CC4)n[nH]c3c2)c1
 : ., ., ?
- Cc1ccc2c(-c3ccnc(Nc4cccc(C(F)(F)F)c4)n3)c(-c3ccccc3)nn2n1
 : ., ., ?
- CC(C)C[C@H]1COc2cc(Br)ccc2S(=O)(=O)N1Cc1ccc(F)cc1F
 : ., ., -1.7%[46.1 µM]
- CCn1c(-c2nonc2N)nc2c(N3CCCC3)nccc21
 : ., ., ?
- O=S1(=O)C=CCN1CCc1ccccc1
 : ., ., 1.4%[46.1 µM]
- CC1(C)CC(n2cnc(-c3ccc(F)cc3)c2-c2ccnc(N)n2)CC(C)(C)N1
 : ., ., ?
- O=C(OC1CNC(C#Cc2cc3ncnc(Nc4ccc5c(ccn5Cc5cc(F)ccc5F)c4)c3s2)C1)N1CCOCC1 (configuration not stated)
 : ., ., 3.97µM*

Exported field by field: part of the list above.
COC(=O)[C@H](C)N1CC=CCOc2c(Cl)cc(Cl)cc2[S+]1(=O)[O-]
  NS1 function inh: .
  SARS PLpro yeast: .
  LASV entry inh: -4.2%[46.1 µM]
NS(=O)(=O)c1cccc(-c2ccc3c(NC(=O)C4CC4)n[nH]c3c2)c1
  NS1 function inh: .
  SARS PLpro yeast: .
  LASV entry inh: ?
Cc1ccc2c(-c3ccnc(Nc4cccc(C(F)(F)F)c4)n3)c(-c3ccccc3)nn2n1
  NS1 function inh: .
  SARS PLpro yeast: .
  LASV entry inh: ?
CC(C)C[C@H]1COc2cc(Br)ccc2S(=O)(=O)N1Cc1ccc(F)cc1F
  NS1 function inh: .
  SARS PLpro yeast: .
  LASV entry inh: -1.7%[46.1 µM]

(more compounds)
Screens in order: NS1 function inh, SARS PLpro yeast, LASV entry inh
- CN1CCC(n2cnc(-c3ccc(F)cc3)c2-c2ccnc(N)n2)CC1
 : ., ., ?
- O=S1(=O)CCSC[C@@H](CNCc2ccco2)N1
 : ., ., ?
- N#Cc1cccc(Nc2ncc(-c3ccccc3)o2)c1
 : ., ., ?
- O[C@H]1CN(Cc2cccs2)[C@@H](c2ccc(Cl)cc2)C[C@H]1n1cc(C2CC2)nn1
 : ., ., -23.7%[46.1 µM]
- CCOc1nccc2c1nc(-c1nonc1N)n2CC
 : ., ., ?
- C[C@@H]1COc2cc(N3CCCC3)ccc2S(=O)(=O)N1
 : ., ., 7.0%[46.1 µM]
- CN(C)CCOc1ccc(-c2nc(-c3ccc4c(c3)CCC4=NO)c(-c3ccncc3)[nH]2)cc1
 : ., ., ?
- CN1CCN(CCCNc2nc3ccc(Oc4ccc(NC(=O)Nc5cc(C(F)(F)F)ccc5F)cc4)cc3[nH]2)CC1
 : ., ., ?
- CS(=O)(=O)CCNCc1ccc(-c2ccc3ncnc(Nc4ccc(OCc5ccccc5)cc4)c3c2)o1
 : ., ., 15.8µM*
- N#Cc1c(NC(=O)c2ccc(F)cc2)sc2c1CCCC2
 : ., ., ?
- Nc1nccc(-c2c(-c3ccc(F)cc3)ncn2C2CCC(O)CC2)n1 (configuration not stated)
 : ., ., ?
- C=CCN1C[C@H](COC(=O)c2ccc(C)c(C)c2)Oc2cccc(F)c2S1(=O)=O
 : ., ., ?
- COCC1CN(CCc2ccc(F)cc2)[S+](=O)([O-])c2c(OCCN3C(=O)[C@H]4[C@H](C3=O)[C@H]3C=C[C@@H]4C3)cccc2O1 (some centres not stated)
 : ., ., ?
- COCOCCn1cc(CN2CCS(=O)(=O)N(Cc3ccc(-c4cccc(N(C)C)c4)cc3)C(C)C2=O)nn1 (configuration not stated)
 : ., ., ?
- COc1ccc(-c2cc3c(N)ncnc3o2)cc1
 : ., ., ?
- O=C(Nc1n[nH]c2cc(-c3ccccc3)ccc12)C1CC1
 : ., ., ?
- O=C(Nc1ccc(F)cc1)OC[C@@H]1CSCCS(=O)(=O)N1
 : ., ., ?
- CCS(=O)(=O)c1ccc(OC)c(Nc2ncc(-c3ccccc3Cl)o2)c1
 : ., ., ?
- CS(=O)(=O)CCNCc1coc(-c2ccc3ncnc(Nc4ccc(OCc5ccccc5)cc4)c3c2)c1
 : ., ., ?
- CC[C@H](C)[C@@H](C(=O)OC)N1Cc2ccccc2Oc2cc(Br)ccc2S1(=O)=O
 : ., ., ?
- CS(=O)(=O)CCNCc1ccc(-c2ccc3ncnc(Nc4ccc(OCc5cccc(C(F)(F)F)c5)cc4)c3c2)o1
 : ., ., 28.1µM*
- CCc1ccc(Oc2nccc(-c3c(-c4ccc(F)cc4)ncn3C3CCNCC3)n2)cc1
 : ., ., 11.2µM*
- Fc1ccc(Nc2nccc(-c3c(-c4ccc(C(F)(F)F)cc4)nn4ncccc34)n2)cc1F
 : ., ., -4.2%
- O=C1NC(=O)C(c2cccc(Cl)c2)=C1Nc1ccc(O)c(Cl)c1
 : ., ., ?
- CC1=C(C(=O)Nc2ccc3[nH]ncc3c2)C(c2ccc(F)cc2)NC(=O)N1 (configuration not stated)
 : ., ., 5.7%
- CCCCN1CC(COCc2ccccc2)Oc2cccc(Oc3ccc(F)cc3OC)c2S1(=O)=O (configuration not stated)
 : ., ., ?
- CC(C)NC(=O)OC[C@@H]1CSCCS(=O)(=O)N1
 : ., ., ?
- N#Cc1ccc(Oc2nccc(-c3c(-c4ccc(F)cc4)ncn3C3CCNCC3)n2)cc1
 : ., ., ?
- O=S(=O)(NCc1ccccc1)c1cc(Br)ccc1Br
 : ., ., ?
- O=[S+]1([O-])C[C@H](N2CC[C@@H](O)C2)[C@H](COCc2ccccc2)N1
 : ., ., -4.0%[46.1 µM]
- NS(=O)(=O)c1ccc(N=Nc2c(O)[nH]c3ccc(C(=O)NCc4ccncc4)cc23)cc1
 : ., ., ?
- Fc1ccc(-c2nn3ncccc3c2-c2ccnc(Nc3ccc4c(c3)OCCO4)n2)cc1
 : ., ., 7.91µM*
- COc1c(C(N)=O)cc(-c2ccc(Cl)cc2)cc1-c1ccc(S(N)(=O)=O)cc1
 : ., ., 25µM*
- CC(C)C[C@@H]1COc2cccc(NCCO)c2S(=O)(=O)N1
 : ., ., ?
- COc1ccc2cc(-c3c(-c4ccncc4)nc(-c4ccc(S(C)=O)cc4)n3C)ccc2c1 (configuration not stated)
 : ., ., ?
- O=C1NC(=O)C(c2ccccc2Cl)=C1Nc1cccc(O)c1
 : ., ., ?
- CCCC=Cc1ccc(CN2C(C(C)C)C(=O)N(Cc3cn(CCC4OCCO4)nn3)CCS2(=O)=O)cc1 (configuration not stated)
 : ., ., ?
- COC(=O)c1ccsc1NS(C)(=O)=O
 : ., ., ?
- CCN(Cc1cc(OC)c(OC)c(OC)c1)S(=O)(=O)c1ccccc1Br
 : ., ., ?
- COc1cc(F)ccc1Oc1cccc2c1S(=O)(=O)N(C1CC1)C[C@@H](COCc1ccccc1)O2
 : ., ., ?

Full records from above:
Results for `CS(=O)(=O)CCNCc1ccc(-c2ccc3ncnc(Nc4ccc(OCc5ccccc5)cc4)c3c2)o1` → NS1 function inh: .; SARS PLpro yeast: .; LASV entry inh: 15.8µM*
Results for `CCOc1nccc2c1nc(-c1nonc1N)n2CC` → NS1 function inh: .; SARS PLpro yeast: .; LASV entry inh: ?

Additional compounds
Screens in order: NS1 function inh, SARS PLpro yeast, LASV entry inh
- COc1ccccc1CNc1ccc2c(c1)OC[C@H](CC(C)C)NS2(=O)=O
 : ., ., 9.8%[46.1 µM]
- O=S1(=O)CC(N2CC=CC2)CN1CCc1ccccc1 (configuration not stated)
 : ., ., 7.9%[46.1 µM]
- CC1=C(C(=O)Nc2cc(Cl)c3[nH]ncc3c2)C(c2ccc(C(F)(F)F)cc2)CC(=O)N1 (configuration not stated)
 : ., ., ?
- O=S1(=O)c2ccc(Br)cc2OC2CCCN1C2 (configuration not stated)
 : ., ., 6.9%[46.1 µM]
- CNC(=O)c1cncc(C=Cc2ccccc2Cl)c1
 : ., ., ?
- COC(=O)[C@H](Cc1ccccc1)N1CC=CS1(=O)=O
 : ., ., ?
- Cc1cccc(CN2CCSCCS2(=O)=O)c1
 : ., ., 5.3%[46.1 µM]
- Cc1ccccc1CN1[C@@H](CC(C)C)COc2c(Cl)cccc2S1(=O)=O
 : ., ., ?
- COc1cc(C=NNc2ncnc3c2cnn3-c2ccccc2)ccc1O
 : ., ., 15.8µM*
- Cc1cc(O)cc(C)c1C=Cc1cncc(C(=O)OC(C)(C)C)c1
 : ., ., 0.791µM*
- CC(C)C[C@H]1COc2c(Cl)cccc2S(=O)(=O)N1Cc1ccc(Cl)cc1
 : ., ., -13.7%[46.1 µM]
- CCC[C@H]1CN(Cc2cccnc2)C(=O)[C@H]1CC(=O)Nc1ccc(Br)cc1
 : ., ., 6.1%[46.1 µM]
